Screens as filed in PubChem.
Menin-MLL FL inh = menin-MLL binding inhibition, fluorescein peptide | 290,000 tested, under 10 active | AID 1766 | Fluorescence polarization, fluorescein-MLL peptide displacement from menin | FP activity change, % at 61.4 µM; inconclusive = falling polarisation curve, or a change in total fluorescence; inactive = total fluorescence flat and polarisation flat or rising; no compound was filed as active; the % refers to the polarisation; negative = inhibition;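 also: % of control where 0% means no effect; inhibitors lower the polarisation; unlabelled MLL peptide was the positive control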
gsp antag = gsp mutant antagonism; gsp-mutant cells, cAMP HTRF, 30 min; control for the full effect not named in the record; Potency, µM (top dose mostly 76.9 µM), inactives show at the highest dose activity change, negative = inhibition, most hits filed as inhibitors; hit rate 0.4% among 340,000; AID 624288; active = falling curve of any shape with a large fitted effect; inconclusive = falling curve, mostly with a smaller effect; inactive = flat or rising curve; cell line not stated here;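 also: intracellular cAMP measured with PDE inhibitor Ro 20-1724 present during compound exposure; potency is read from the fitted curve at half-maximal effect; % is scaled to controls: 0 for no effect and ±100 for the full control effect; nearly all actives have a fitted effect of over 65% in size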
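G418-selected cells were plated in DMEM/10% FBS for 16-24 h at 37C, then treated with compounds plus the PDE inhibitor […] (300 uM solution added) for 30 min at 37C. Intracellular cAMP was measured by HTRF after 30 min lysis at room temperature.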
D2 PAM = potentiates the human D2 dopamine receptor allosterically. P14416. DiscoveRx D2 beta-arrestin cells, luminescence, 90 min; 100% = 57 uM dopamine signal. potentiation, % (test concentration not listed). hit rate 0.23% among 360,000; active = potentiation of 50% or more; inconclusive = 30% to 50%; inactive = 30% or less;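 also: compound concentration not given in the record; tested on top of an EC20 dose of dopamine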
Target sequence (P14416 whole entry, looked up): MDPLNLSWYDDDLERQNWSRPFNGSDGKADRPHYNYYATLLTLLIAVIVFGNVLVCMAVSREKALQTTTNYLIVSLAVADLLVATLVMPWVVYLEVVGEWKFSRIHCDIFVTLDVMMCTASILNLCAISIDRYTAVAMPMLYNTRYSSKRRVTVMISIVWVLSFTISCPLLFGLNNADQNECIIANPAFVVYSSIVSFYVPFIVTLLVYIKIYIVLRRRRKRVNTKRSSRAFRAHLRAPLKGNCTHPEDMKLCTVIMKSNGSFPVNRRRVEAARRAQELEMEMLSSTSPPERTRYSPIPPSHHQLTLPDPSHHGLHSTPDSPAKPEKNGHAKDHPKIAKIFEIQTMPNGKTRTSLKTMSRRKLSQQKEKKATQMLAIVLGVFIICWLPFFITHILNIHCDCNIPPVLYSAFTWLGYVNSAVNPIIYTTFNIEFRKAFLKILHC
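D2 cells co-treated with compound plus 50 nM dopamine (EC20) for 90 min at 37 deg C to detect potentiation. Beta-arrestin recruitment was read as enzyme-fragment luminescence after 1 h at ambient temperature. Full response was set by 57 uM dopamine.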
ClpP mod = qHTS Assay for Activators of ClpP. purified B. subtilis ClpP, FRET peptide cleavage, 20 min. Potency, µM (series often up to 57.5 µM), inactives show top-dose activity change, negative = active. hit rate 1.9% among 340,000. AID 651965, 2013; active = well fitted falling curve with a large enough effect; inconclusive = small, poorly fitted or top-dose-only effect; inactive = no such curve, though single readings can be large or run the other way; also: potency is read from the fitted curve at half-maximal effect; the source files actives as falling curves though it sought activators and does not explain the sign; nearly all actives have a fitted effect of over 65% in size; many hits overshoot -100%
Target sequence (P80244 whole entry, looked up): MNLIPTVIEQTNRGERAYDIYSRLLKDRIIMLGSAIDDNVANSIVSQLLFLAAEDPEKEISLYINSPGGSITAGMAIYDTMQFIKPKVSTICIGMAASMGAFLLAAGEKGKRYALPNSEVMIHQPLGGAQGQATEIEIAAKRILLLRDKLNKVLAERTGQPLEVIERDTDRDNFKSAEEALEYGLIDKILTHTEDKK
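Buffer: 100 mM Tris/HCl pH8, 100 mM KCl, 0.05% low protease BSA, 2.5% glycerol, 0.01% Tween-20. ClpP 10 microg/mL final; 20 min RT; delta FRET normalized to ADEP and DMSO controls.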
TRPV1 potentiator = human TRPV1 potentiation. TRPV1-expressing cells, Fluo-8 calcium influx, capsaicin EC20 potentiation; host cell line not named in the record; control for the full effect not named in the record. potentiation, % at 8.33 µM. hit rate 0.02% among 320,000; active means potentiation above 80%; inconclusive means 30% to 80%; inactive means below 30%; also: 0% is about no effect
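Fluo-8 calcium influx in TRPV1-expressing cells, kinetic read (ex 480/em 520 nm). Compound added and read 3 min for agonist activity, followed by capsaicin at EC20 final and 2 min further read for enhancement.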
gsp agonist = agonists of gsp mutant (McCune-Albright syndrome); hit rate 0.13% among 340,000; gsp mutant cells, cAMP HTRF, 30 min; control for the full effect not named in the record; Potency, µM (top dose mostly 76.9 µM), for inactives: at the top dose activation (cAMP increase), usual class: activators; active = well fitted activation curve with a large enough effect; inconclusive = small, poorly fitted or top-dose-only effect, or another doubt; inactive = no such curve, though single readings can be large or run the other way; cell line not stated here;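 also: phosphodiesterase inhibitor Ro 20-1724 added with compounds to block cAMP breakdown; potency is read from the fitted curve at half-maximal effect; nearly all actives have a fitted effect of over 60% in size; about a fifth of the inactives were tested at one dose only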
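Cells in DMEM/10% FBS with G418 were pretreated with compounds in DMSO plus […] (300 uM stock) for 30 min at 37C. cAMP was measured by HTRF (cAMP-d2 plus anti-cAMP antibody-K) after 30 min at room temperature.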
Sfp PPTase inh = Sfp phosphopantetheinyl transferase inhibition | Biochemical Sfp PPTase activity, qHTS | hit rate 3.5% among 310,000 | Q9F4F7 | Potency, µM, without a hit: max response, negative = inhibition, usual class: inhibitors; active = well fitted inhibition curve with a large enough effect; inconclusive = small, poorly fitted or top-dose-only effect, or another doubt; inactive = no such curve, though single readings can be large or run the other way;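 also: the enzyme is Sfp with the accession as filed and its product quenches rhodamine fluorescence; potency is read from the fitted curve at half-maximal effect; 0% = enzyme reaction without inhibitor and -100% = no enzyme wells; top concentration of the series not given in the record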
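Buffer: 50 mM Hepes-Na pH 7.6, 10 mM MgCl2, 0.01% Nonidet P-40, 0.01% BSA. Enzyme 15 nM, pre-exposed to compound 15 min; substrates then added and fluorescence change tracked over 30 min.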
The depositor's hits bear a star; ? = inconclusive; . = no result given; & = joins results of further samples; [ ] = dose if it differs, or a comment.

SMILES	Menin-MLL FL inh	gsp antag	D2 PAM	ClpP mod	TRPV1 potentiator	gsp agonist	Sfp PPTase inh
Cc1cnc(NC(=O)CCN2C(=O)C3CCCCC3C2=O)s1 (stereo not given)	0.0	11%	-6	0.8%	4	-3%[15.4 µM]	-6%
C=CCn1ccc(O)c(Cc2ccc(Cl)cc2)c1=O	2.7	6%	-7	-0.5%	4	?	20%
Cn1c(=S)n(CCC(=O)O)c2ccccc21	0.4	-8%	-3	.	4	1%[15.4 µM]	10%
COc1cccc(/C=N/Nc2ncnc(Cl)c2N)c1O	3.8	-1%	12	-1.9%	-20	-10%	9%
CCOCCCN1C(=O)C(O)=C(C(C)=O)C1c1cccs1 (stereo not given)	.	4%	-11	-7.8%	.	8%	.
Cc1ccc2c(c1)=C(c1sc(N(C)c3ccc(O)cc3)nc1O)C(=O)N=2	?	?	-14	-0.5%	29	-7%	2%
CCOC(=O)c1oc2ccccc2c1NC(=O)CCl	3.5	-8%	-27	-19%	-26	?	15%
CCc1ccc[n+](-c2nc([O-])sc2C=O)c1	1.0	4%	-4	1.7%	-6	10%[15.4 µM]	9%
O=C(O)Cc1ccc(NC(=O)Nc2cccc3ccccc23)cc1	3.6	10%	-12	-8.9%	-3	-1%	1%
CCn1c(SCC(=O)C(C)(C)C)nnc1-c1ccccc1OC	-0.6	7%	-25	0.6%	-2	5%	-6%
COC(=O)c1cc(OC)c(OC)cc1N1C(=O)CCCC1=O	-4.1	4%	-10	7.4%	22	-106%[inhibitor]	7%
CC(C)c1nnc(NC(=O)COC(=O)/C=C/c2ccc([N+](=O)[O-])cc2)s1	-2.8	-1%	-4	1.4%	-1	-7%	-4%
Cc1ccc(S(=O)(=O)N(C)C)cc1NC(=O)COC(=O)c1cccs1	.	.	-12	2.2%	.	-40%	.
COc1ccc(CN(C)CC(=O)NC(=O)NCc2ccccc2)cc1OC	0.0	-3%	-4	1.5%	-5	-1%[15.4 µM]	1%
Cc1ccc(N(CC(=O)NCC2CCCO2)C(=O)CCC(=O)Nc2nccs2)cc1 (stereo not given)	-0.6	8%	-4	.	2	16%[15.4 µM]	18%
CC1SC(=NC(=O)C(C)N2C(=O)c3ccccc3C2=O)NC1=O (stereo not given)	1.6	?	2	1.6%	1	-4%	-18%
COc1cc(S(=O)(=O)N2CCOCC2)ccc1NC(=O)COC(=O)c1ccccn1	-2.1	3%	-15	-1.6%	4	?	10%
Cc1ccc([N+](=O)[O-])c(C(=O)Nc2cccnc2Cl)c1	-6.4	-4%	-6	0.6%	13	3%	3%
CCOC(=O)N1CCN(c2cc(=O)n(-c3ccccc3Cl)c(=O)[nH]2)CC1	1.1	3%	-6	-4.5%	-2	5%	6%
CC(Sc1nnc(-c2ccncc2)n1C)C(=O)NCC1CCCO1 (stereo not given)	.	8%	27	.	28	-59%[15.4 µM]	.
CC(=O)Nc1cccc(-c2nnc(SCC(=O)n3c4c(c5ccccc53)CCCC4)n2C)c1	-0.3	-1%	-2	2.9%	-4	19%	?
Cc1c(C(=O)OCC(=O)N(C)C2CCS(=O)(=O)C2)oc2ccc(Br)cc12 (stereo not given)	20	-2%	1	-5.2%	.	-24%	-1%
COC(=O)c1c(-c2cccc(C)c2)csc1N	1.0	?	0	-2.0%	2	-25%	-28%
Cc1ccc2nc3c(cc(C(=O)NC4CCCC4)c(=N)n3CCCn3ccnc3)c(=O)n2c1	4.1	.	.	.	-2	.	14%
Cc1c(CCCl)c(Cl)n2c(nc3ccccc32)c1C#N	.	3%	-19	-1.7%	.	14%	.
O=C1CC(c2ccccc2)CC(O)=C1C=NCc1ccc(Cl)c(Cl)c1 (stereo not given)	0.9	-4%	-13	0.2%	?	14%	-1%
CCC1(C)Cc2nc3sc(C(=O)O)c(N)c3cc2CO1 (stereo not given)	2.3	-2%	-17	-5.8%	3	8%	28µM*
Cc1ccc(Cn2ccc(NC(=O)c3cc(C4CC4)on3)n2)cc1	-1.5	0%	3	1.1%	-21	25%	2%
CCOc1cc(N2CCOCC2)c(OCC)cc1NC(=O)c1ccc(C)cc1	0.6	13%	-42	.	-2	-10%[15.4 µM]	12%
Cn1cccc1/C=C1/SC(=O)N(CC(=O)N2CCCC2)C1=O	1.5	-20%	-22	.	-4	-5%[15.4 µM]	21%

Arranged by value in Menin-MLL FL inh (low to high): 3 from the list above.
compound,Menin-MLL FL inh
COc1cc(S(=O)(=O)N2CCOCC2)ccc1NC(=O)COC(=O)c1ccccn1,-2.1
CCOC(=O)c1oc2ccccc2c1NC(=O)CCl,3.5
Cc1c(C(=O)OCC(=O)N(C)C2CCS(=O)(=O)C2)oc2ccc(Br)cc12 (stereo not given),20

Other records follow:
SMILES	Menin-MLL FL inh	gsp antag	D2 PAM	ClpP mod	TRPV1 potentiator	gsp agonist	Sfp PPTase inh
COc1ccccc1NC(=S)NCCSc1ccc(Cl)cc1	-0.2	1%	-1	1.6%	-20	-4%	5%
Cc1ccc(C(=O)Nc2ccc3c(c2)OCCO3)cc1	0.2	1%	-4	-2.3%	-5	-55%[15.4 µM]	13%
COC(=O)C1=C(C)N(c2ccc(Cl)c(Cl)c2)C(=O)C1	-2.1	3%	-23	2.0%	-9	-3%	-2%
CC(C)c1nnc(NC(=O)CSc2ncn[nH]2)s1	0.4	-2%	-6	-0.4%	-3	-3%	-23%
COc1ccc(Nc2nc(C(C)(C)C)nc3c2nnn3Cc2ccccc2Cl)cc1OC	.	6%	-3	-3.7%	.	-3%	.
Cc1ccc(CN(C)C(=O)C2CCC(=O)N(CC3CCCCC3)C2)o1 (stereo not given)	.	-6%	7	0.4%	0	-25%	4%
Cc1ccc2cccc(NC(=O)c3ccc(Br)o3)c2n1	1.4	-19%	-3	-9.5%	-1	-3%	-29%
CCn1c2ccccc2c2cc(NC(=O)c3cc(C)on3)ccc21	4.7	-17%	2	.	-9	1%[15.4 µM]	-1%
COc1ccccc1-c1nn2c(-c3ccc(C(C)(C)C)cc3)nnc2s1	2.3	.	.	.	1	.	-5%
O=c1cc(-c2ccccc2)[nH]c2cc(Cl)ccc12	0.0[94.6 µM]	8%	-11	-6.5%	-11	33%	8%&12%
CC(=O)Oc1ccc(C(=O)Nc2ccccc2C(=O)Nc2cccc(C(=O)O)c2)cc1	-2.1	3%	-1	-1.4%	-1	7%[15.4 µM]	-6%
COc1ccccc1Oc1ccc(N/C=C/C(=O)C(C)(C)C)cc1	-0.1	-7%	-2	.	-1	-18%	9%
S=C(NC1CCCC1)N1CCOCC1	-2.7	-8%	1	.	-3	18%	7%
N#Cc1ccccc1Cn1c(=O)n(CCCC(=O)NCc2ccc3c(c2)OCO3)c(=O)c2ccccc21	-0.4	-7%	3	0.7%	4	-3%[15.4 µM]	-12%
CC(=O)C1=C(C)NC(=O)NC1c1ccc(Cl)cc1 (stereo not given)	-0.1	-8%	2	.	2	8%[15.4 µM]	27%
O=C(O)c1ccc(-n2[nH]c3c(c2=O)CCCC3)cc1	0.0	7%	-5	.	10	2%[15.4 µM]	-6%
Cc1cc(C(=O)COc2cccc3cccnc23)c(C)n1C	-2.2	-4%	-1	-2.8%	16	11%	2%
O=C(Nc1ccc2c(c1)OCO2)c1cnn2c1NC(c1ccco1)CC2C(F)(F)F (stereo not given)	14	8%	-12	-4.3%	-11	5%	11%
CCC(=O)Nc1ccc(-c2nnc(SCC(=O)N3CCCCC3)n2C)cc1	0.2	4%	3	0.3%	-1	-1%	18%
CC1CCCN(CCOc2ccc(Br)cc2)C1 (stereo not given)	8.0	19%	-19	0.9%	7	6%[15.4 µM]	?
COc1ccc(OC)c(NC(=O)COC(=O)CN(C)S(=O)(=O)c2ccc(C)cc2)c1	-0.2	-19%	-9	-3.2%	5	1%	8%
CN1CCN(S(=O)(=O)c2cccc(C(=O)Nc3sccc3C#N)c2)CC1	.	-1%	4	0.6%	10	-132%[inhibitor]	.
O=C(CCC1N=C2c3ccccc3N=C(SCc3ccc(Cl)cc3)N2C1=O)NCc1ccco1 (stereo not given)	5.4	-4%	-5	?	10	3%	-16%
Cc1cc(-c2ccccc2)n2nc(N)nc2n1	0.6	12%	-6	3.2%	-1	?	8%
Cc1ccc(-c2nnn(CC(=O)N(Cc3cccs3)C(C(=O)NC3CCCCC3)c3ccco3)n2)o1 (stereo not given)	5.2	1%	3	2.1%	3	1%	21%
COc1ccc(N(Cc2cc3ccc(C)cc3[nH]c2=O)C(C)=O)cc1	2.9	-22%	-34	-16%	-23	21%	12%
CC1(C(=O)Nc2nnc(C(C)(C)C)s2)Cc2ccccc2C(=O)O1 (stereo not given)	2.3	5%	-6	1.3%	3	3%	-7%
Cc1oc(S(=O)(=O)N2CCCCC2)cc1NC(=O)Nc1ccccc1	-2.5	-3%	-15	-2.2%	-15	7%[15.4 µM]	2%
O=C(N/N=C/c1ccc(-c2cccc([N+](=O)[O-])c2)o1)[C@H]1C[C@@H]1c1ccccc1	.	?	-24	?	14	-20%	5%
CC1CC(C)(C)Nc2ccc(OC(=O)c3ccco3)cc21 (stereo not given)	0.5	-5%	112*	0.3%	22	-22%	-13%
Cc1ccc(-c2nnc(OCc3nc4ccccc4n3C)c3ccccc23)cc1	.	-9%	5	.	.	-8%[15.4 µM]	.
CCCC1CCc2[nH]nc(C(=O)NN)c2C1 (stereo not given)	.	2%	-9	-1.2%	-43	?	.
CC(C)CCN1C(=O)c2cccc3c(N)ccc(c23)C1=O	.	-2%	-4	.	.	-12%[15.4 µM]	.
CC(C)OC(=O)CSc1nc(Cc2cccs2)nc2ccccc12	2.6	74%[activator]	-7	-0.5%	-11	4%	-1%
CCOc1ccc2nc(NC(=O)c3ccc(C)o3)sc2c1	.	?	0	0.3%	.	2%[15.4 µM]	.
CCOc1ccc(NC(=O)c2ccc(NC(=O)CSc3nc4ccccc4c(=O)[nH]3)cc2)cc1	18	-3%	-11	-3.3%	4	-2%[15.4 µM]	8%
O=C(COC(=O)c1ccc[nH]c1=O)NC1CCCCCC1	-0.3	5%	-6	-1.5%	-4	6%[15.4 µM]	13%
Cc1ccc(S(=O)(=O)Nc2cc(C(=O)NCCN(C)C)ccc2N2CCCC2)cc1	-5.8	13%	-24	-6.2%	-5	?	-9%
COC(=O)c1ccc(NC(=O)C23CC4CC(C2)CC(n2cnc(Cl)n2)(C4)C3)cc1	-2.3	-13%	-21	-4.1%	6	-2%	7%
